Cruzain inh Det: cruzain (T. cruzi) inhibition with detergent | P25779 | purified cruzain, Z-FR-AMC fluorescence, 0.01% Triton | Potency, µM, for inactives: max response, negative = inhibition, usual class: inhibitors | 200,000 compounds, 0.43% hits; active = well fitted curve in the direction sought with a large enough effect; inconclusive = small, poorly fitted or top-dose-only effect, or another doubt; inactive = no such curve, though single readings can be large; an effect the other way counts as inactive or inconclusive;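 note: plate controls were neutral wells for no effect and buffer without enzyme for full effect; nearly all actives have a fitted effect of over 40% in size; top concentration of the series not given in the record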
Target sequence (P25779 123-467 limits assumed): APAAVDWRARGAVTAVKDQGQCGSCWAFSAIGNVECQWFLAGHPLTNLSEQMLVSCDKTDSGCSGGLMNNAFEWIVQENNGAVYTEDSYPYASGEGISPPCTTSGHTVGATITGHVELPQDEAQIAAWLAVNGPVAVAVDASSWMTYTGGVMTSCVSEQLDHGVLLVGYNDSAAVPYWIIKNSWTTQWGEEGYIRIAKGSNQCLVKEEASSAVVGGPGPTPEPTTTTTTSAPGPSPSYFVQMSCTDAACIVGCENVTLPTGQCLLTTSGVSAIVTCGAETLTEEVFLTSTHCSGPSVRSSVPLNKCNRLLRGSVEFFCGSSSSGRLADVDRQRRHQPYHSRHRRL
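Sodium acetate buffer (100 mM, pH 5.5) containing 5 mM DTT and 0.01% Triton X-100 hosted 1.5 nM cruzain and test compound for 15 min at room temperature. Cleavage of 2 uM Z-FR-AMC was then tracked by fluorescence.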
SARS PLpro yeast: blocks SARS-CoV papain-like protease in a yeast assay; 330,000 compounds, 0.19% hits; S. cerevisiae expressing SARS-CoV PLpro, growth rescue; control for the full effect not named in the record; Potency, µM (doses to about 32.9 µM), without a hit: top-dose activity, positive = growth rescue; note: 0% is about no effect; nearly all actives have a fitted effect of over 55% in size; growth read by luminescence after 48 h
NS1 inh: blocks influenza NS1 protein function; S. cerevisiae slowed by influenza A NS1, growth recovery by OD600; Potency, µM (titrated, usually from 46.1 µM), inactives show at the highest dose activity, positive = more growth; 270,000 compounds, 0.4% hits; note: actives are rising curves; nearly all actives have a fitted effect of over 50% in size
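Recovery from NS1-induced slow growth read by OD600 in budding yeast switched to galactose assay medium (pH 6.0, -URA) at 1:100 dilution. Compound 23 nl per well; the matching strain lacking NS1 serves as control.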
Cruzain noTriton: inhibitors of Trypanosoma cruzi cruzain without detergent; AID 1476; Potency, µM, without a hit: max response, negative = inhibition, usual class: inhibitors; P25779; 200,000 compounds, 2.3% hits; purified cruzain, Z-FR-AMC fluorescence, no detergent; active = well fitted curve in the direction sought with a large enough effect; inconclusive = small, poorly fitted or top-dose-only effect, or another doubt; inactive = no such curve, though single readings can be large; an effect the other way counts as inactive or inconclusive;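 note: plate controls were enzyme without inhibitor for no effect and buffer without enzyme for full effect; nearly all actives have a fitted effect of over 40% in size; top concentration of the series not given in the record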
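Detergent-free condition (0.00005% Triton X-100) in acetate buffer pH 5.5 with DTT. 1.5 nM enzyme and compound were pre-mixed 15 min, then 2 uM Z-FR-AMC substrate added; reaction progress from fluorescence change between first and third reads (60 s).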
StopGo reporter: FMDV 2A StopGo reporter, luciferase signal | human cells with a luciferase reporter of 2A StopGo recoding; control for the full effect not named in the record | Potency, µM (series often up to 57.9 µM), without a hit: at the highest dose signal change, negative = less light | 410,000 compounds, 1.2% hits | AID 1159524; active = well fitted falling curve with a large enough effect; inconclusive = small, poorly fitted or top-dose-only effect; inactive = no such curve, though single readings can be large or run the other way; tested in HEK293T cells; note: % is set by controls: 0 for no effect and ±100 for the full control effect; nearly all actives have a fitted effect of over 45% in size; luciferase light after 4 h
Lassa entry inh: inhibitors of Lassa virus binding or cell entry; AID 540256; Potency, µM (titrated, usually from 37.9 µM), inactives show at the highest dose activity change, negative = inhibition, hits mostly inhibitors; Lassa virus pseudotype entry inhibition, cell reporter; control for the full effect not named in the record; 300,000 compounds, 1.2% hits; active means well fitted inhibition curve with a large enough effect; inconclusive means small, poorly fitted or top-dose-only effect, or effect the other way; inactive means flat fitted curve, though single readings scatter; tested in HEK293 cells; note: % is set by controls: 0 for no effect and ±100 for the full control effect; nearly all actives have a fitted effect of over 50% in size; luciferase read-out
MARV entry inh: Marburg virus entry inhibition; 300,000 compounds, 1.8% hits; Marburg virus pseudotyped entry inhibition, cell reporter; control for the full effect not named in the record; about a third of the inactives were read at about 46 µM; AID 540276; Potency, µM (doses to about 37.8 µM), for inactives: top-dose activity change, negative = inhibition, most hits filed as inhibitors; active = well fitted inhibition curve with a large enough effect; inconclusive = small, poorly fitted or top-dose-only effect, or effect the other way; inactive = flat fitted curve, though single readings scatter; tested in HEK293 cells; about a fifth of its hits are not listed in these tables; note: % is set by controls: 0 for no effect and ±100 for the full control effect; luciferase read-out
RE007 growth inh: less growth of the S. pombe RE007 Vpr strain | AID 651644 | Potency, µM (series often up to 92.2 µM), for the others: at the top dose activity change, negative = less growth | 360,000 compounds, 0.21% hits | S. pombe RE007 Vpr strain, BacTiter-Glo ATP luminescence, 24 h; control for the full effect not named in the record; active = well fitted falling curve with a large enough effect; inconclusive = small, poorly fitted or top-dose-only effect; inactive = no such curve, though single readings can be large or run the other way;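 note: % is set by controls: 0 for no effect and ±100 for the full control effect; nearly all actives have a fitted effect of over 50% in size; the assay follows cell death caused by Vpr and the record does not say whether a fall means rescue or toxicity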
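Fission yeast strain RE007, carrying one chromosomally integrated HIV-1 vpr copy, was seeded at OD 0.01 in PMG+AL medium with 23 nL pinned compound. After 24 h at 30 °C and 99% humidity, viability was read by BacTiter-Glo luminescence.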
Active calls of the source: *; ? = inconclusive; · = not tested or not shown; & = joins results of further samples; [ ] = another dose, or the depositor's remark. Unless noted, calls come from the whole dose curve; as a rule, active means well fitted rising curve with a large enough effect; inconclusive means small, poorly fitted or top-dose-only effect; inactive means no such curve, though single readings can be large or run the other way. Potency is the fitted concentration of half-maximal effect. Hits appear at their usual frequency. Share with any hit: about 4.5%.

structure | Cruzain inh Det | SARS PLpro yeast | NS1 inh | Cruzain noTriton | StopGo reporter | Lassa entry inh | MARV entry inh | RE007 growth inh
CC(C)(C)OC(=O)N/N=C/c1cn(-c2ccccc2)nc1-c1cccnc1 | · | 3% | · | · | -10% | -14%[46.1 µM] | ? | 12%
CN(c1ccc(Cl)cc1)c1cc(=O)n(C)c2ccccc12 | -9.8% | -8% | -83% | -3% | ? | ? | -15% | ?
CCCCn1c(=O)c(C(=O)Nc2ccccc2Cl)c(O)c2ccccc21 | · | -4% | -7% | · | 10% | 44%[46.1 µM] | ? | 18%
O=C(Nc1ccc(N2CCN(C(=O)c3ccccc3)CC2)cc1)c1cc([N+](=O)[O-])ccc1N1CCOCC1 | · | 2% | 26% | · | -23% | 6% | 0.63µM* | -10%
CCCCNC(=O)c1ccccc1NC(=O)c1ccc2c(c1)OCO2 | · | 1% | -5% | · | 7% | · | · | 25%
CCc1ccc(N(CC)C(=O)c2sc3nc4n(c(=O)c3c2C)CCCC4)cc1 | -5.0% | · | · | ? | ? | 0%[46.1 µM] | · | ·
O=S(=O)(c1ccc(Cl)cc1)N1CCN(c2ccc(N3CCOCC3)nn2)CC1 | 0.2% | 3% | -2% | 7% | -3% | -14% | 4% | 5%
c1ccc(Cn2nnc(CNc3ccccc3)c2-c2c(CNc3ccccc3)nnn2Cc2ccccc2)cc1 | · | 1% | 1% | · | 0% | · | · | -23%
O=C(CSc1nc(O)cc(=O)[nH]1)C1CC1 | 3.4% | 4% | 5% | -1% | ? | 8% | 10% | -5%
CCCCc1ccc(NC(=S)N2CCCC(C)C2)cc1 (stereo not given) | · | 0% | -45% | · | 44%[activator] | 11% | ? | ?
CN(C)c1ccc(/C=N/NC(=O)c2nnn(-c3nonc3N)c2COc2ccc(F)cc2)cc1 | · | -2% | 3% | · | -6% | 4% | -28% | 12%
CN1CCc2c(sc3c2C(=O)NC(/C=C/c2ccco2)N3)C1 (stereo not given) | · | · | -31% | · | · | 14% | 12% | -6%
Cc1nn(-c2ccccc2)c(OC(=O)c2cccs2)c1S(=O)(=O)c1ccc([N+](=O)[O-])cc1 | -7.2% | -8% | 4% | -9% | 3% | 0% | 13% | 1%
CCCN1CCN(CCCNC(=O)Cn2nc(-c3ccc(Cl)cc3)ccc2=O)CC1 | -3.3% | 12% | -12% | -4% | -17% | 9% | -13% | 29%
O=C1N=c2ccccc2=C/C1=C\c1c(O)[nH]c(=S)[nH]c1=O | -3.2% | -10% | -5% | -6% | -15% | 10% | 0% | 0%
CCOC(=O)c1c(C)oc2nc(C)nc(NCC3CCN(Cc4ccc(Cl)cc4)CC3)c12 | -0.8% | · | · | -2% | -13% | ? | · | ·
CSc1cc(SC)ncn1 | · | · | · | · | -13% | 4% | 12% | 7%
COc1ccc(N(C(=O)c2ccco2)C(C(=O)NC2CCCCC2)c2ccccc2)cc1 (stereo not given) | · | · | · | · | -1% | ? | 1% | 0%
NNC(=O)/C(=C\c1ccc(Br)cc1)NC(=O)c1cccs1 | · | -1% | 18% | · | -4% | -3% | -17% | -8%
Cc1ccc2cccc(OCc3nnc(SCC(=O)O)n3C)c2n1 | · | 2% | 3% | · | -5% | 17% | 7%[46.1 µM] | 0%
CN(C)c1ccc(C(CNS(=O)(=O)c2ccc(Cl)cc2)N2CCCC2)cc1 (stereo not given) | -1.0% | · | · | 5% | -15% | -30%[46.1 µM] | · | ·
O=C(NCCSCc1ccccc1)c1ccccc1 | -1.5% | -2% | 12% | 5% | 11% | 0% | -2% | -3%
C/C(CC(c1ccccc1)c1c(O)c2ccccc2oc1=O)=N\Nc1ccc([N+](=O)[O-])cc1[N+](=O)[O-] (stereo not given) | · | -2% | 3% | · | ? | · | · | 1%
CNS(=O)(=O)c1cccc(C(=O)OCC(=O)Nc2ccc(Cl)cn2)c1 | · | 2% | -2% | · | -24% | ? | 16%[46.1 µM] | 6%
CC(=O)Nc1ccc(S(=O)(=O)Nc2ccc(Cl)cn2)cc1 | · | 1% | -17% | · | 5% | 13% | ? | 9%
Cc1ccc(-c2cc(C(F)(F)F)n3ncc(C(=O)O)c3n2)cc1 | -8.3% | -17% | -45% | 6% | -24% | -1% | -4% | 6%
COC(=O)c1ccc(NC(=O)CC2C(=O)N(c3ccccc3)C(=O)N2Cc2ccco2)cc1 (stereo not given) | 4.7% | · | · | 0% | 3% | -14%[46.1 µM] | · | ·
CCCC(NS(=O)(=O)c1ccc(-c2ccc(=O)[nH]n2)s1)c1cccs1 (stereo not given) | · | -4% | 9% | · | 0% | ? | ? | 9%
Cc1ccc(-c2cc(C(=O)N3CCc4ccccc4C3)no2)cc1 | · | -1% | -5% | · | ? | 10% | 3% | -1%
COc1ccc(S(=O)(=O)N2CCN(C(=O)COc3ccc4c(C)cc(=O)oc4c3)CC2)cc1 | 1.8% | 1% | 3% | ? | -21% | 5% | ? | -15%
CCc1noc(C)c1C(=O)NNC(=O)c1ccc(Br)cc1 | · | -5% | · | · | -7% | 11% | 0% | -22%
O=C(COc1ccccc1)N1CCN(C(=O)c2cccc(F)c2)CC1 | 3.3% | 0% | 4% | 1% | -3% | 27% | 4% | -11%
O=C(CNC(=O)c1ccccc1F)OCc1cc(=O)n2ccsc2n1 | ? | · | · | ? | -2% | -7%[46.1 µM] | · | ·
O=C(/C=C/Nc1ccccc1O)c1ccco1 | · | -3% | -75% | · | 7% | -1% | -13% | ?
Cc1ccccc1C(=O)Nc1cccc(NC(=O)c2ccc(F)cc2)c1 | · | -3% | -2% | · | -17% | -10%[46.1 µM] | ? | 2%
Cc1ccc(S(=O)(=O)N2CCOCC2)cc1NC(=O)CN1CCC(Cc2ccccc2)CC1 | · | 0% | -8% | · | 6% | ? | ? | 0%
Cc1ccc(C(=O)NCC(=O)NCC(=O)OCC(=O)c2cccs2)cc1 | -5.0% | 4% | 4% | -7% | -11% | 1% | 22% | -8%
COC(=O)c1cc(NC(=O)C2C3C=CC(C3)C2C(=O)O)cc(C(=O)OC)c1 (stereo not given) | -1.6% | -3% | -6% | 0% | 12% | 19%[14.3 µM] | -4% | -2%
O=C(CN1CCN(S(=O)(=O)c2ccc3c(c2)OCCO3)CC1)Nc1cccc(F)c1 | · | -7% | · | · | -13% | -1% | 9%[46.1 µM] | ?
CCCN(CCC)C1CC(=O)N(Cc2ccccc2)C1=O (stereo not given) | 1.5% | -16% | -240% | 9% | -7% | -3% | -21% | 14µM*
CCCC(=O)Nc1nc2ccc(NC(=O)c3cccnc3)cc2s1 | -0.6% | -5% | 0% | 8% | · | -8% | ? | -7%
CCOC(=O)c1cnc(SCC(=O)c2ccc(C)cc2)nc1N | 0.3% | 25% | 1%[9.22 µM] | -3% | 23% | -2% | 8% | -4%
CC(C)CN(CC(C)C)S(=O)(=O)N1CCC(C(=O)NCc2ccc(F)cc2)CC1 | -1.8% | -8% | -9% | ? | ? | -21% | -16% | 4%
Cc1ccccc1NS(=O)(=O)c1ccc(C)c(C(N)=O)c1 | 1.1% | 0% | 0% | 2% | 9% | -14% | -3% | 0%[3.69 µM]
CCN(CC)CCNC(=O)COc1ccc(OC)cc1 | 8.7%&-0.3% | -6% | 5% | -1%&-4% | ? | 3%[46.1 µM] | -8%&-8%&-8%&-8%&-8%&-8%[46.1 µM] | -12%[18.4 µM]
CC(C)Oc1ccc(CNC(=S)Nc2ccccc2)cc1Cl | · | -2% | -13% | · | 29% | · | · | 3%
Cc1cc(C)c2nc(NNC(=O)c3ccc(S(=O)(=O)N4CCCC(C)C4)cc3)sc2c1 (stereo not given) | -0.6% | ? | 24% | ? | ? | ? | ? | -10%
Cc1ccccc1NC(=O)C1CCCN1S(=O)(=O)c1ccccc1C(F)(F)F (stereo not given) | · | -9% | · | · | -11% | -2% | -12% | -1%
COc1ccc(CCn2c(N3CCOCC3)nc3c2c(=O)[nH]c(=O)n3C)cc1 | 1.4% | 4% | -7% | 9% | 18% | -21% | -9% | -4%
COC(=O)CCC(=O)Oc1ccc(OC(=O)CCC(=O)OC)cc1 | -3.0% | 21% | -5% | -5% | · | -3% | -21% | ·
CCN(Cc1ccncc1)C(=S)Nc1ccccc1 | · | 1% | 10% | · | 8% | -5% | 6%[46.1 µM] | 1%
Cc1c(C(=O)OC(C)C)[nH]c2c1C(=O)CCC2 | -3.4% | -1% | 2% | -12% | · | 11% | 7% | -8%
COc1c(C)cc(C(=O)C2CCCN(C3CCOCC3)C2)cc1C (stereo not given) | · | 1% | -2% | · | -3% | 15%[46.1 µM] | -8%[46.1 µM] | 1%
COc1ccc(-c2cc(C)no2)cc1S(=O)(=O)N1CCN(c2ccc(C(C)=O)cc2)CC1 | 3.2% | · | · | -8% | 0% | 7%[46.1 µM] | · | ·
CCNC(=O)c1cccc(NC(=O)CC2SC(N3CCCCC3)=NC2=O)c1 (stereo not given) | · | 12% | · | · | 3% | 21% | 4% | -5%
Cc1ccc(CSc2ncc(Cl)c(C(=O)Nc3nc4ccc(C)cc4s3)n2)cc1 | -0.1% | · | · | 6% | -7% | 11%[46.1 µM] | -6%[46.1 µM] | ·
CCc1cccc(CC)c1NC(=O)c1cc(CN2C(=O)c3ccccc3C2=O)ccc1OC | -2.7% | ? | 21% | -1% | ? | ? | -16% | 9%
C=CCn1c(O)c(C(CC)=NCCCO)c(=O)[nH]c1=O | 3.4% | 0% | 6% | -6% | -16% | 8% | 7% | 18%
Cc1ccc2cccc(OC(=O)/C=C\c3ccccc3)c2n1 | · | 9% | 2% | · | -4% | · | · | -1%
CCCCSCc1cc(C(=O)O)oc1C(C)(C)C | · | 0% | -1% | · | -10% | · | 0%[46.1 µM] | 0%
CCOC(=O)C1=C(C)N=c2s/c(=C\c3ccc(C(=O)O)cc3)c(=O)n2C1c1ccc(F)cc1 (stereo not given) | · | -2% | -2% | · | ? | 6%[46.1 µM] | 11%[46.1 µM] | 2%

Source: PubChem BioAssay (National Center for Advancing Translational Sciences (NCATS))
